Source: PubChem (National Center for Advancing Translational Sciences (NCATS))
EPAC1 ag val: validation of human EPAC1 agonists; O95398; EPAC1 Rap1b BODIPY-GDP exchange, fluorescence; Potency, µM, inactives show max response, positive = active, usual class: activators; 1% of 16,000 active; active = well fitted activation curve with a large enough effect; inconclusive = small, poorly fitted or top-dose-only effect; inactive = no such curve, though single readings can be large or run the other way;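 also: nearly all actives have a fitted effect of over 70% in size; series mostly up to about 76 or 150 µM; scaled to a cAMP control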
Target sequence (O95398 whole entry, looked up): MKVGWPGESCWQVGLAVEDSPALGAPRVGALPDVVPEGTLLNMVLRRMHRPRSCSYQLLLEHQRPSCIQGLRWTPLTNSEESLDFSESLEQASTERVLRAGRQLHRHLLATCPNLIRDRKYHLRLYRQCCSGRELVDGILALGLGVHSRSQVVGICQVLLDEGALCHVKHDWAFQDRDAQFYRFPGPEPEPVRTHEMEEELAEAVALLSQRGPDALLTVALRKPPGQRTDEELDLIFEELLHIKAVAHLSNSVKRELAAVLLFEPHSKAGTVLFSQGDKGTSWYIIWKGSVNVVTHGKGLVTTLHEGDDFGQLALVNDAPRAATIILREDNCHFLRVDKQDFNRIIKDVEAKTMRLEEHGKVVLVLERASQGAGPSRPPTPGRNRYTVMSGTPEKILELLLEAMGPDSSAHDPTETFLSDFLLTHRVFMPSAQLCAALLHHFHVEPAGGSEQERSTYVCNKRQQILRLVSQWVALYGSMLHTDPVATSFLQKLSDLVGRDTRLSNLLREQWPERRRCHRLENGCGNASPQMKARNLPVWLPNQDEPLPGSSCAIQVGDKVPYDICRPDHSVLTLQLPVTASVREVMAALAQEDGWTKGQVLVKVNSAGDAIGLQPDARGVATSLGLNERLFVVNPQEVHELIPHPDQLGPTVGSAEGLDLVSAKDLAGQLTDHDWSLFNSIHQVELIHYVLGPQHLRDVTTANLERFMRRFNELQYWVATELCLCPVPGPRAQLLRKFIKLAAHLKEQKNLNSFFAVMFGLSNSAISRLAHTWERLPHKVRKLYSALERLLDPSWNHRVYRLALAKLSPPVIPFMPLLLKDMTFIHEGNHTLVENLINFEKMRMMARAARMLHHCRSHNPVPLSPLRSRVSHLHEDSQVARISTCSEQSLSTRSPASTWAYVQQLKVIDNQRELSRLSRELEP
* marks the source's active call; other numbers are inactive results; ? = inconclusive; & = joins results of further samples; [ ] = dose if it differs, or a comment. % is scaled to controls: 0 for no effect and ±100 for the full control effect; potency is read from the fitted curve at half-maximal effect.

No.	SMILES	EPAC1 ag val
1	Cc1cccc(CNc2ncnc3ccc(-c4ccc5c(c4)OCO5)cc23)c1	-7.5%
2	O=S(=O)(c1ccccc1)N1CCC2(CCCN(c3ccccn3)C2)CC1	?
3	CNc1cc(-c2ccccc2C)ncn1	-30.7%[inhibitor]
4	O=C(O)/C=C/c1ccc(Cn2ccnc2)cc1	-0.9%
5	O=C(c1ccccc1)c1ccccc1	16.0%
6	COc1ccc(-c2c(O)c3c(OC)c4c(cc3oc2=O)OC(C)(C)CC4)cc1	2.3%
7	Cn1c(=O)c(-c2cccc(F)c2)nc2cncnc21	21.4%
8	COc1ccccc1-c1nc(NCCN2CCOCC2)c2ccccc2n1	-7.3%
9	CC(=O)S[C@@H]1CC2=CC(=O)CC[C@]2(C)[C@H]2CC[C@@]3(C)[C@@H](CC[C@@]34CCC(=O)O4)[C@H]12	?
10	O=C(Nc1nccs1)[C@@H]1CC=C[C@@H]2CCN(C3CC3)C(=O)[C@@H]21	6.2%
11	COc1ccc(CNc2nc(-c3c(C)noc3C)nc3ccccc23)c(OC)c1	?
12	COc1cc2c(C)c3c4c(cc(OC)c(OC)c4c2cc1OC)CCN3C	26.1%
13	CN1CCCC2(CCN(C(=O)c3cnccn3)CC2)C1	10.7%
14	CCCCCCCCCCCCCCCCCCNC(=O)OC1CCN(C(=O)OC[C@H](COC(=O)N(Cc2cccc[n+]2CC)C(=O)c2ccccc2OC)OC)CC1	-2.0%
15	CCCNC(=O)NS(=O)(=O)c1ccc(Cl)cc1	1.5%&-17.8%&9.1%
16	COc1ccc(C(=O)N2CCC3(CC2)CN(CC(C)C)C3)cc1	29.8%
17	C=Cc1c(C)c2cc3[nH]c(cc4nc(cc5nc(cc1[nH]2)C(C)=C5CCC(=O)O)C(CCC(=O)O)=C4C)c(C)c3C=C	?
18	OCc1ccccc1	-38.1%[inhibitor]
19	CC(=O)OC1CC2C(C)(C)C(O)CC[C@@]2(C)C2CC[C@@]3(C)C(c4ccoc4)OC(=O)C4O[C@@]43[C@]12C (stereo partly specified)	-10.0%
20	Cc1ccc(C(=O)Nc2cccc(-c3nc(CNC(=O)[C@@H]4C[C@@H](C)NC(=S)N4)c(C)o3)c2)s1	-8.4%
21	Nc1nc(N)c(N=O)c(N)n1	?
22	COCCn1c(=O)c(C)nc2cnc(N3CCOCC3)nc21	-49.0%[inhibitor]
23	O=C(c1ccco1)N1CCC[C@@]2(CCN(c3ccccc3)C2)C1	-31.3%[inhibitor]
24	Cc1noc(C)c1-c1cncnc1-n1ccnc1	-12.5%
25	NNC(=O)c1ccncc1	-3.1%&-16.2%&10.4%
26	O=c1cc(-c2ccccc2O)oc2ccc3ccccc3c12	4.5%
27	O=c1c(-c2cc(F)cc(F)c2)nc2cnc(N3CCOCC3)nc2n1Cc1cccs1	-30.4%[inhibitor]
28	COCC(=O)N1CCC2(CC1)CN(Cc1ccc(C#N)cc1)C2	26.7%
29	O=C1CC(C(=O)N2CCOc3ccc(CN4CCC(Oc5cccnc5)CC4)cc3C2)c2ccccc21 (stereo unspecified)	-6.3%
30	O=C(O)/C=C/C=C/c1ccccc1	?
31	CC(=O)[C@@H]1[C@H]2[C@H](C(=O)[C@H]3OC[C@@H]2O3)[C@H]2C=Cc3ccccc3N21	5.9%
32	COc1cc2nc(N3CCN(C(=O)C4CCCO4)CC3)nc(N)c2cc1OC (stereo unspecified)	-9.0%&-9.3%
33	CC(=O)OC1CCC2(O)CC1(C)CCC1C2CC1(C)C (stereo unspecified)	-18.2%
34	NC(CSCSCC(N)C(=O)O)C(=O)O (stereo unspecified)	-16.4%
35	Cn1cccc1C(=O)N1CCC2(CC1)CN(C(=O)Nc1cccc(C#N)c1)C2	17.8%
36	CCCC[P+](CCCC)(CCCC)Cc1ccc(NC(=O)[C@@H](Cc2ccc3ccccc3c2)NC(=NC2CCCCC2)NC2CCCCC2)cc1	5.3%
37	CCC(CCC(C)C1CCC2C3CC=C4CC(OC(C)=O)CC[C@@]4(C)C3CC[C@@]12C)C(C)C (stereo partly specified)	6.4%
38	CC/C=C\C/C=C\C/C=C\CCCCCCCCCC(=O)O	-19.6%
39	O=c1cnc2cncnc2n1Cc1ccccc1	-24.6%
40	COCC(=O)N1CCC2(CC1)CN(Cc1cc(C(F)(F)F)cc(C(F)(F)F)c1)C2	-57.4%[inhibitor]
41	CCCOC(=O)c1ccccc1O	12.3%
42	NC[C@@H]1O[C@@H](O[C@H]2[C@@H](O)[C@H](O[C@@H]3[C@@H](O)[C@@H](N)C[C@H](N)[C@H]3O[C@H]3O[C@H](CN)[C@@H](O)[C@@H](O)[C@H]3N)O[C@H]2CO)[C@H](N)[C@@H](O)[C@@H]1O	5.3%
43	CC(=O)OC[C@@]1(O)C[C@]23CCC4c5ccoc5CC[C@@]4(C)C2CCC1C3 (stereo partly specified)	9.0%
44	Cc1cnc(-n2ncc(C(=O)NCc3ccncc3)c2C(C)C)nc1-c1ccc(F)cc1	16.8%
45	O[Si](CCCN1CCCCC1)(c1ccc(F)cc1)C1CCCCC1 (stereo unspecified)	-3.3%
46	Cc1cnc(SCc2ccccn2)nc1C1CCCN(C(=O)c2cccc(-c3cccc(F)c3)c2)C1 (stereo unspecified)	14.7%
47	CC(CCC(=O)O)C1CCC2C3C(=O)CC4CC(=O)CC[C@@]4(C)C3CC(=O)[C@]12C (stereo partly specified)	?
48	Cc1c(C(=O)NCc2ccc(F)cc2)sc2ncnc(NCC3CCCO3)c12 (stereo unspecified)	-11.8%
49	COc1ccccc1-c1cc(NCc2cccnc2)ncn1	-10.0%
50	CCCCCCCCCCCCCCCC(=O)OCCC1CCN(CCCN2c3ccccc3Sc3ccc(S(=O)(=O)N(C)C)cc32)CC1	2.2%
51	CCn1cc(C(=O)O)c(=O)c2ccc(C)nc21	1.8%&4.7%&16.4%
52	CC(=O)Oc1ccc(C(c2ccc(OC(C)=O)cc2)c2ccccn2)cc1	-44.1%&9.9%[inhibitor]
53	OC[C@H]1O[C@@H]2O[C@H]3[C@H](O)[C@@H](O)[C@@H](O[C@H]4[C@H](O)[C@@H](O)[C@@H](O[C@H]5[C@H](O)[C@@H](O)[C@@H](O[C@H]6[C@H](O)[C@@H](O)[C@@H](O[C@H]7[C@H](O)[C@@H](O)[C@@H](O[C@H]1[C@H](O)[C@H]2O)O[C@@H]7CO)O[C@@H]6CO)O[C@@H]5CO)O[C@@H]4CO)O[C@@H]3CO	-9.3%
54	CCCCC/C=C\C\C=C/C=C/C=C/[C@@H](SC[C@H](N)C(=O)O)[C@@H](O)CCCC(=O)O	-3.0%
55	O=C(/C=C/c1ccc(O)cc1)c1cccs1	4.4%
56	O=C1CCN(CCc2ccccc2)CCN1[C@H](COc1ccccc1)c1ccccc1	13.1%
57	COc1ncc2nc(-c3cc(F)cc(F)c3)c(=O)n(CCc3ccccc3)c2n1	-15.6%
58	Cc1cnc(-n2ncc(C(=O)NCc3ccccn3)c2C2CC2)nc1-c1cccs1	6.6%
59	FC(F)(F)COCC(F)(F)F	-64.0%[inhibitor]
60	Cc1cc(-c2ccnc(-n3ncc(C(=O)NCC4COCCO4)c3C)n2)c(C)s1 (stereo unspecified)	-9.9%

(listing goes on)
No.	SMILES	EPAC1 ag val
61	O=c1c(O)cc(C2Oc3cc(O)cc(O)c3CC2O)cc2c(C3Oc4cc(O)cc(O)c4CC3O)cc(O)c(O)c12 (stereo unspecified)	-32.9%[inhibitor]
62	COc1ccc(CN2C[C@H](Sc3nc4ccccc4[nH]3)C[C@H]2C(=O)N2CCCN(C)CC2)cc1C	-1.7%
63	COCCn1c(=O)c(-c2cccs2)nc2cnc(N3CCN(C)CC3)nc21	9.9%
64	CN(C)c1ncc2nc(-c3ccc(Cl)cc3)c(=O)n(CCC#N)c2n1	-5.9%
65	CC(C)C[C@H](NC(=O)[C@@H](COC(C)(C)C)NC(=O)[C@H](Cc1ccc(O)cc1)NC(=O)[C@H](CO)NC(=O)[C@H](Cc1c[nH]c2ccccc12)NC(=O)[C@H](Cc1cnc[nH]1)NC(=O)[C@@H]1CCC(=O)N1)C(=O)N[C@@H](CCCN=C(N)N)C(=O)N1CCC[C@H]1C(=O)NNC(N)=O	-11.2%&-13.2%
66	O=S(=O)(c1ccccc1)N1CCC2(CCN(Cc3nccs3)CC2)CC1	-34.2%[inhibitor]
67	COc1ccc(C(=O)N2CCC3(CCN(C(=O)Nc4ccccc4)CC3)CC2)cc1	-45.7%[inhibitor]
68	C#C[C@]1(O)CC[C@H]2[C@@H]3CCC4=CCCC[C@@H]4[C@H]3C(=C)C[C@@]21CC	?
69	Cn1c(=O)c(CCc2ccccc2)nc2cnc(N3CCOCC3)nc21	-51.3%[inhibitor]
70	O=S(=O)(c1ccccc1)N1CCC[C@@]2(CCN(c3ccncc3)C2)C1	-61.0%[inhibitor]
71	COc1cc(OC)c(/C=C/c2ccccn2)c(OC)c1	?
72	CN=C1C=CC(=C(c2ccc(N(C)C)cc2)c2ccc(N(C)C)cc2)C=C1	-11.4%
73	CCNc1ncc2nc(-c3ccc(Cl)cc3)c(=O)n(-c3ccccc3)c2n1	?
74	FC(F)(F)c1cc(CN2CC3(CCNCC3)C2)cc(C(F)(F)F)c1	-26.1%
75	CC(C)=CCc1c2c(c3occ(-c4ccc(O)cc4)c(=O)c3c1O)C=CC(C)(C)O2	-170.3%[inhibitor]

As entered above.
no. 61 in EPAC1 ag val is entered as -32.9%[inhibitor]
no. 72 in EPAC1 ag val is entered as -11.4%
no. 67 in EPAC1 ag val is entered as -45.7%[inhibitor]
no. 63 in EPAC1 ag val is entered as 9.9%

Next records follow.
No.	SMILES	EPAC1 ag val
76	O=C(O)Cc1cccc2ccccc12	29.5%&-4.8%
77	OC1C=C2CCN3Cc4cc5c(cc4C(C1O)C23)OCO5 (stereo unspecified)	5.6%
78	COc1ccc(CNc2cc(-c3ccccc3OC)ncn2)c(OC)c1	-21.2%
79	C[C@H](Cc1ccc(O)c(O)c1)[C@@H](C)Cc1ccc(O)c(O)c1	5.6%&-32.8%
80	CCC(=O)O[C@]1(C(=O)CCl)[C@@H](C)C[C@H]2[C@@H]3CCC4=CC(=O)C=C[C@]4(C)[C@@]3(F)[C@@H](O)C[C@@]21C	28.9%
81	c1ccc2nc3ccccc3cc2c1	?
82	CN1CCN(c2ncnc3ccc(-c4cccnc4)cc23)CC1	-17.4%
83	CC1=C(/C=C/C(C)=C/C=C/C(C)=C/C(=O)O)C(C)(C)CCC1O (stereo unspecified)	-14.1%
84	CCCCCCCCCCCCCCCC(=O)OC(C)C	-18.3%
85	CCOC(=O)c1ccc(OC(=O)CCCCCN=C(N)N)cc1	-18.1%&-18.1%
86	COc1cccc(Cn2c(=O)c(-c3ccc(F)c(F)c3)nc3cncnc32)c1	?
87	NCC(O)c1ccc(O)c(O)c1 (stereo unspecified)	2.4%
88	CCCCC/C(C=O)=C\c1ccccc1	?
89	NC(CCCP(=O)(O)O)C(=O)O (stereo unspecified)	1.7%
90	CN(C)c1nc(-c2ccc3c(c2)OCO3)nc2ccccc12	?

Among those listed so far, these contain a cyano group:
No.	SMILES	EPAC1 ag val
28	COCC(=O)N1CCC2(CC1)CN(Cc1ccc(C#N)cc1)C2	26.7%
35	Cn1cccc1C(=O)N1CCC2(CC1)CN(C(=O)Nc1cccc(C#N)c1)C2	17.8%
64	CN(C)c1ncc2nc(-c3ccc(Cl)cc3)c(=O)n(CCC#N)c2n1	-5.9%

Three entries from above, with the structure last.
item	EPAC1 ag val	molecule
76	29.5%&-4.8%	O=C(O)Cc1cccc2ccccc12
19	-10.0%	CC(=O)OC1CC2C(C)(C)C(O)CC[C@@]2(C)C2CC[C@@]3(C)C(c4ccoc4)OC(=O)C4O[C@@]43[C@]12C (stereo partly specified)
80	28.9%	CCC(=O)O[C@]1(C(=O)CCl)[C@@H](C)C[C@H]2[C@@H]3CCC4=CC(=O)C=C[C@]4(C)[C@@]3(F)[C@@H](O)C[C@@]21C

(listing goes on)
No.	SMILES	EPAC1 ag val
91	C=CC(C1=CC(=O)C(OC)=CC1=O)c1ccccc1 (stereo unspecified)	17.7%
92	CN(C)C(=O)c1ccc(-c2cc(NCc3ccccc3)ncn2)cc1	-10.9%
93	Cn1cccc1C(=O)N1CCC2(CCCN(Cc3ccc(C#N)cc3)C2)CC1	-15.7%
94	COc1cccc(-c2cc(=O)c3cc(O)ccc3o2)c1	-13.0%
95	N#CC(C#N)=C(N)/C(C#N)=C/c1ccc(O)cc1	-8.3%
96	CS(=O)(=O)Nc1cccc(-c2ccc3ncnc(NCc4cccs4)c3c2)c1	-4.0%
97	COc1cccc(-c2nc(NCCN3CCOCC3)c3ccccc3n2)c1	-7.6%
98	Nc1ccc(O)cc1	8.0%&5.7%
99	NS(=O)(=O)c1cc2c(cc1Cl)NC=NS2(=O)=O	-2.8%&-17.8%&19.3%
100	CCCCC/C=C\C\C=C/C=C/C=C/[C@@H](SCC(NC(C)=O)C(=O)O)[C@@H](O)CCCC(=O)O (stereo partly specified)	-5.3%
101	COc1cccc(CNC(=O)c2c(OC)cc(=O)n3c2CCN(C(=O)c2ccc(C)cc2C)CC3)c1	4.0%
102	COc1ccc(-c2oc3ccc(C)cc3c(=O)c2O)cc1OC	6.0%
103	N#Cc1ccc(CN2CCC3(CC2)CCN(C(=O)c2cc(C(F)(F)F)cc(C(F)(F)F)c2)CC3)cc1	-120.1%[inhibitor]
104	CNC(=O)[C@H]1O[C@@H](n2cnc3c(N)ncnc32)[C@H](O)[C@@H]1O	-12.5%
105	CCOC(=O)c1c(N)sc2c1CCN(Cc1ccccc1)C2	12.0%
106	COc1ccc(NC(=O)N2CC[C@@]3(CCCN(C(=O)c4ccc(OC)cc4)C3)C2)cc1	-4.4%
107	Cc1nccn1CC1CCc2c(c3ccccc3n2C)C1=O (stereo unspecified)	9.0%&-13.3%
108	CC(C)N=c1cc2n(-c3ccc(Cl)cc3)c3ccccc3nc-2cc1Nc1ccc(Cl)cc1	22.9%
109	Cc1cccc(CNc2nc(-c3ccccc3CN(C)C)nc3ccccc23)c1	-29.1%
110	O=C(Nc1ccccc1)N1CCC2(CC1)CCN(C(=O)c1cnccn1)CC2	-40.7%[inhibitor]
111	CC(=O)N[C@@H](C(=O)O)C(C)(C)SN=O	4.4%
112	COc1ccccc1CCC(=O)N1CCOc2c(cc(-c3cnc4ccccc4c3)cc2OC)C1	4.7%

A portion of the library; count on the stated rates, not on these rows.
